# TRPML1 inh: human mucolipin-1 channel inhibition | 390,000 compounds, 0.02% hits | TRPML1-inducible cells, Ca2+ dye fluorescence, FDSS; hits give low values; inhibition of EC80 agonist-evoked calcium signal | Q9GZU1 | activity change, negative = inhibition, % (concentration not given with the values); in the data active means activity change below about -50%; inconclusive means about -30% to -50%; inactive means above about -30%;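 note: stimulus is agonist 54-4 at its EC80 concentration; % is set by controls: 0 for no effect and ±100 for the full control effect; the text of the record puts the active cut at -80%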
# Target sequence (Q9GZU1 whole entry, looked up): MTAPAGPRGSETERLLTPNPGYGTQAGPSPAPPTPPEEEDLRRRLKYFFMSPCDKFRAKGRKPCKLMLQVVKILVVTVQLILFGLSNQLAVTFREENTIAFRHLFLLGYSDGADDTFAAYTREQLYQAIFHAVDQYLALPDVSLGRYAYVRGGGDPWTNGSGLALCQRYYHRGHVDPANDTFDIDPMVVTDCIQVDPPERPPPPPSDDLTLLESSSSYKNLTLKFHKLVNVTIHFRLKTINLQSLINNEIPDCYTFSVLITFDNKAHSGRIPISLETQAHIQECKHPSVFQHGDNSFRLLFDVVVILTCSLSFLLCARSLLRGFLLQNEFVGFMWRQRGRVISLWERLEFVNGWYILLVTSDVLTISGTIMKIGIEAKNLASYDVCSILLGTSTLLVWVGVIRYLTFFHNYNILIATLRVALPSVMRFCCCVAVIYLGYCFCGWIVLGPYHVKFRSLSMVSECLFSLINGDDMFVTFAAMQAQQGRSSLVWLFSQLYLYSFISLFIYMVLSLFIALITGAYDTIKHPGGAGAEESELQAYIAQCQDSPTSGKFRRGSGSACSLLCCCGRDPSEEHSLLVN
#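 Tet-induced TRPML1-DL cells loaded with Ca8 no-wash calcium dye were read kinetically on FDSS. Compound addition was followed by EC80 agonist 54-4 (4 uM final); inhibition was read over 110 s.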
# gsp antagonist: gsp mutant antagonism; gsp-mutant cells, cAMP HTRF, 30 min; control for the full effect not named in the record; 340,000 compounds, 0.4% hits; Potency, µM (titrated, usually from 76.9 µM), without a hit: top-dose activity change, negative = inhibition, hits mostly inhibitors; AID 624288; active = falling curve of any shape with a large fitted effect; inconclusive = falling curve, mostly with a smaller effect; inactive = flat or rising curve; cell line not stated here;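 note: intracellular cAMP measured with PDE inhibitor Ro 20-1724 present during compound exposure; potency is the fitted concentration of half-maximal effect; % is set by controls: 0 for no effect and ±100 for the full control effect; nearly all actives have a fitted effect of over 65% in size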
#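 HTRF cAMP read-out (cAMP-d2 plus anti-cAMP antibody-K in lysis buffer, 30 min RT). Before lysis, cells are exposed to compounds with […] for 30 min at 37C in DPBS containing Ca/Mg, BSA and Tween 20.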
# gsp agonist: activates gsp, the McCune-Albright syndrome mutation. gsp mutant cells, cAMP HTRF, 30 min; control for the full effect not named in the record. Potency, µM (top dose mostly 76.9 µM), inactives show top-dose activation (cAMP increase), actives largely listed as activators. 340,000 compounds, 0.13% hits. AID 624287; active = well fitted activation curve with a large enough effect; inconclusive = small, poorly fitted or top-dose-only effect, or another doubt; inactive = no such curve, though single readings can be large or run the other way; cell line not stated here;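 note: phosphodiesterase inhibitor Ro 20-1724 added with compounds to block cAMP breakdown; potency is the fitted concentration of half-maximal effect; nearly all actives have a fitted effect of over 60% in size; about a fifth of the inactives were tested at one dose only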
#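 Cells in DMEM/10% FBS with G418 were pretreated with compounds in DMSO plus […] (300 uM stock) for 30 min at 37C. cAMP was measured by HTRF (cAMP-d2 plus anti-cAMP antibody-K) after 30 min at room temperature.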
# ClpP mod: qHTS Assay for Activators of ClpP. ATP-dependent Clp protease proteolytic subunit (Bacillus subtilis (strain 168)), P80244. purified B. subtilis ClpP, FRET peptide cleavage, 20 min. Potency, µM (highest dose often 57.5 µM), inactives show at the highest dose activity change, negative = active. 340,000 compounds, 1.9% hits; active = well fitted falling curve with a large enough effect; inconclusive = small, poorly fitted or top-dose-only effect; inactive = no such curve, though single readings can be large or run the other way; note: potency is the fitted concentration of half-maximal effect; the source files actives as falling curves though it sought activators and does not explain the sign; nearly all actives have a fitted effect of over 65% in size; many hits overshoot -100%
# Target sequence (P80244 whole entry, looked up): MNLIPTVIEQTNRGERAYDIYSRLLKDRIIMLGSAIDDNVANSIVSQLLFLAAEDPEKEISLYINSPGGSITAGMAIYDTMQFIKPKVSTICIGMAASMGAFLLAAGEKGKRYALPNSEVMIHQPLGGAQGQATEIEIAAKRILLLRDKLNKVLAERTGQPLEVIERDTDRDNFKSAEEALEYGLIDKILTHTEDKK
#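 FRET quenching reversal measured ClpP activation: 10 microg/mL B. subtilis ClpP at pH 8 with the FRET-FV decapeptide, read at 430 nm after 320 nm excitation. The 20-min minus 0-min signal was scaled between DMSO/no-enzyme wells and ADEP (5.8 microM final).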
# Menin MLL FP FL: displaces fluorescein MLL peptide from human menin. Fluorescence polarization, fluorescein-MLL peptide displacement from menin. FP activity change, % at 61.4 µM. 290,000 tested, under 10 active. AID 1766; inconclusive = falling polarisation curve, or a change in total fluorescence; inactive = total fluorescence flat and polarisation flat or rising; no compound was filed as active; the % refers to the polarisation; negative = inhibition;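 note: % of control where 0% means no effect; inhibitors lower the polarisation; unlabelled MLL peptide was the positive control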
# TRPML1 agonist: activates the human TRPML1 channel. activation, % (no concentration beside the values). 410,000 compounds, 0.12% hits. Q9GZU1. TRPML1-expressing cells, Ca2+ dye fluorescence, FDSS; host cell line not named in the record; reference of the full effect not given here; in the data active = activation above about 50%; inconclusive = about 30% to 50%; inactive = below about 30%; note: 0% is about no effect; the text of the record puts the active cut at 80%
#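 Kinetic FDSS Ca2+ read in Tet-induced TRPML1-DL cells (ABD Ca8 dye plus quencher, 45-90 min RT loading): baseline, then compound, then 110 s agonist window; EC80 agonist 54-4 at 4uM final added afterwards for a 110 s antagonist window.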
# * = called active by the depositor; ? = inconclusive; . = no result given; & = joins results of further samples; [ ] = remark or other dose.
nr | Compound | TRPML1 inh | gsp antagonist | gsp agonist
1 | COC(=O)CSc1nccc(-c2ccc(F)cc2)c1C#N | 0 | . | 8%[15.4 µM]
2 | CN1C2=NCCN2C(=O)c2ccccc21 | -12 | 14% | ?
3 | Cc1cc(=O)n(CC(=O)NCCC(C)C)c2c1c(C)nn2C | -6 | . | .
4 | CCCC(C(=O)NC1CCCC1)N(CC1CCCO1)C(=O)CNS(=O)(=O)c1ccccc1 (configuration not stated) | -4 | 7% | 21%[15.4 µM]
5 | CC1CNC(=S)N(c2ccccc2)C1=O (configuration not stated) | 4 | 6% | -1%
6 | CCOC(=O)c1cnc2c(ccc3ccccc32)c1NCCCN(C)C | -9 | 9% | ?
7 | CC(=O)Nc1ccc(-n2c(=O)c3ccccc3c3ccccc3c2=O)cc1 | 2 | -4% | -21%[15.4 µM]
8 | CCc1nnc(N/N=C/c2ccc(N3CCC(C)CC3)c([N+](=O)[O-])c2)n1N | -2 | -9% | -31%
9 | Cn1c(=O)n(CC(=O)O)c(=O)c2c1nc1n2CCCN1CCc1ccccc1 | . | -1% | -20%
10 | CCCCCC(=O)N1C[C@@H](O)[C@H](n2cc(-c3ccc(F)cc3)nn2)C[C@@H]1c1ccc(C)cc1 | 23 | . | 2%
11 | Cc1ccc(-c2ccc(=O)n(CC(=O)NCCN(C)C)n2)cc1 | -30 | -2% | 7%
12 | CC(C)(C)C(=O)N1CCN(c2c(Cl)cccc2[N+](=O)[O-])CC1 | -19 | -30% | -3%

nr | ClpP mod | Menin MLL FP FL | TRPML1 agonist
1 | . | -3.2 | 1.6
2 | -3.0% | 5.2 | 0.5
3 | -15% | . | -0.8
4 | -1.0% | 1.7 | -1.1
5 | -10.0% | . | 0.2
6 | . | 2.0 | -0.2
7 | -2.4% | -8.5 | -0.4
8 | . | -1.4 | -0.9
9 | 0.4% | -12 | .
10 | -0.4% | . | 3.4
11 | -27% | 2.1 | 0.2
12 | 0.7% | 0.4 | -1.0

# Going on with the list:
nr | Compound | TRPML1 inh | gsp antagonist | gsp agonist
13 | COCCN(C(=O)COC(=O)CCCOc1ccc(OC)cc1)c1c(N)n(Cc2ccccc2)c(=O)[nH]c1=O | -9 | 12% | -45%[inhibitor]
14 | CC(C)OCCCn1c(=O)c2ccccc2n2c(CCC(=O)N3CCN(c4ccccn4)CC3)nnc12 | -2 | -8% | 20µM*
15 | Cc1cc(Br)cc(Cl)c1OC(=O)c1ccncc1 | 13 | -10% | 2%
16 | O=[N+]([O-])c1cc(-c2ccc(/C=N\n3cnnc3)o2)cc([N+](=O)[O-])c1 | 11 | -1% | 13%[15.4 µM]
17 | CC(=O)c1ccc(OC2(C)CCN(Cc3ccc(OC(F)(F)F)cc3)C2)cc1 (configuration not stated) | 23 | . | .
18 | Cc1ccc(C(=O)COC(=O)CCC(=O)Nc2cccc(Cl)c2)cc1[N+](=O)[O-] | 27 | -5% | 26%
19 | Cc1c(C(=O)CN2CCOCC2)[nH]c2ccccc12 | -19 | -1% | -16%
20 | O=C(CCNC(=O)c1ccccc1)NC1CCCc2ccccc21 (configuration not stated) | -9 | 8% | 11%[15.4 µM]
21 | COc1ccc(-c2cc(C(F)(F)F)nc(NC3CCCC3)n2)cc1OC | 19 | 3% | -15%
22 | Cc1ccc(NC(=O)CSc2ccc(-c3ccccn3)nn2)c(C)c1 | 15 | -8% | ?
23 | COc1cc(C2=NOC(C(=O)NC3CCCCC3)C2)cc(OC)c1OC (configuration not stated) | 11 | 7% | -20%
24 | Cc1ccc(S(=O)(=O)NCc2ccccc2)cc1C(=O)N(C)CC(=O)Nc1ccccc1Br | 45 | -6% | 24%

nr | ClpP mod | Menin MLL FP FL | TRPML1 agonist
13 | -0.2% | . | -0.1
14 | -15% | . | 0.7
15 | . | . | 2.0
16 | -4.0% | 0.4 | -1.3
17 | -0.8% | . | -0.2
18 | 1.5% | 2.3 | -0.9
19 | -5.1% | 0.2 | -0.8
20 | -0.5% | . | 0.5
21 | 35µM* | 6.9 | 2.9
22 | -0.5% | . | 1.6
23 | -0.5% | -0.1 | 1.0
24 | -0.8% | . | 0.3

# (further entries)
nr | Compound | TRPML1 inh | gsp antagonist | gsp agonist
25 | CCOC(=O)c1cc(-c2ccccc2)n(CCCC(=O)Nc2ccc(C)c(C)c2)c1C | -10 | . | .
26 | Cn1cc(C(=O)N/N=C/C(Br)=C/c2ccccc2)ccc1=O | 7 | -9% | -33%[inhibitor]
27 | CCCCOC(=O)c1ccc(NC(=O)c2ccccc2OC)cc1 | 21 | -24% | -8%[15.4 µM]
28 | O=C(COC(=O)c1cn(-c2ccccc2)nc1-c1ccccc1)Nc1ncc(Cl)cc1Cl | -5 | 17% | 9%[15.4 µM]
29 | Cc1ccccc1OC(C)C(=O)Nc1ccc2c(c1)OCCO2 (configuration not stated) | 1 | 7% | -1%
30 | COc1ccc(OC)c(NC(=O)Nc2cc(NC(=O)Nc3cc(OC)ccc3OC)c(C)nc2C)c1 | -8 | 2% | 12%[15.4 µM]
31 | CCOC(=O)CCSc1nc(C(C)(C)C)cc(C(F)(F)F)c1C#N | -3 | 0% | 13%
32 | CCOc1ccc(CCNC(=O)c2nnn(CC(=O)Nc3ccc(OC)cc3)c2N)cc1OCC | 3 | 16% | -6%
33 | Cc1ccc(C)c(OCCC(=O)NNC(=O)c2cc(C)oc2C)c1 | 4 | -10% | -21%
34 | COc1ccc(S(=O)(=O)Nc2ccccc2C(=O)NC(C)(C)C)cc1OC | -1 | -6% | 0%
35 | CCN(CC)S(=O)(=O)c1ccc2c(c1)nc(CCC(=O)Nc1ccc3c(c1)OCO3)n2CC | -24 | -26% | -11%
36 | CC(C)C(NC(=O)c1ccc(C(C)(C)C)cc1)C(=O)NCC1(N(C)C)CCCCC1 (configuration not stated) | 13 | 8% | -6%[15.4 µM]

nr | ClpP mod | Menin MLL FP FL | TRPML1 agonist
25 | -17% | . | 0.3
26 | 0.4% | -0.6 | -0.8
27 | -9.4% | 0.0 | 1.3
28 | . | ? | 0.4
29 | -0.7% | . | -0.3
30 | -1.4% | -1.4 | 0.2
31 | -25% | -0.4 | 24
32 | -0.6% | . | 1.0
33 | -0.3% | . | 0.5
34 | ? | -0.9 | -0.7
35 | -19% | 2.9 | 0.8
36 | . | -1.1 | 0.4

# Following part
nr | Compound | TRPML1 inh | gsp antagonist | gsp agonist
37 | COc1cc(OC)cc(C(=O)Nc2cccc(-c3ccc(N4CCOCC4)nn3)c2)c1 | -5 | -16% | 9%
38 | COc1ccc(N(CC(=O)Nc2ccccc2C(=O)N2CCCC2)S(C)(=O)=O)cc1 | 4 | 3% | 14%
39 | COc1ccccc1CNC(=O)c1cc(C)nn1-c1ccccc1 | . | 10% | 7%
40 | COc1cc([C@H]2c3c(cc(OC)c(O)c3OC)C[C@@H](CO)[C@@H]2CO[C@@H]2O[C@H](CO)[C@@H](O)[C@H](O)[C@H]2O)cc(OC)c1O | 25 | 3% | ?
41 | CCc1cc2cc(C(=O)Nc3ccccc3F)sc2s1 | -16 | 9% | -7%
42 | COc1ccc(Oc2c(C)nc(SCC(=O)c3ccc(Cl)cc3)[nH]c2=O)cc1 | 8 | -21% | 2%[15.4 µM]
43 | Cc1ccc(Nc2nc(N)c(C#N)c(CC#N)c2C#N)cc1 | 44 | 2% | ?
44 | OCCC1CN(Cc2ccon2)CCN1Cc1ccccc1 (configuration not stated) | -1 | 9% | -7%[15.4 µM]
45 | O=C(NCCS(=O)(=O)N1CCN(c2ccccc2F)CC1)C1CC(=O)N(c2ccccc2)C1 (configuration not stated) | 0&-18 | -1% | 5%
46 | CCCC(=O)Nc1ccc(C(=O)NN2C(=O)c3ccccc3C2=O)cc1 | 16 | -10% | -16%
47 | COc1ccc(C2=C(C)C(N3CCN(c4ccc(OC)cc4)CC3)=NS2(=O)=O)cc1 | -2 | . | .
48 | CCOC(=O)Cc1csc(SC(C)C(=O)NCC(=O)Nc2ccc(F)c(F)c2F)n1 (configuration not stated) | 20 | -1% | 3%

nr | ClpP mod | Menin MLL FP FL | TRPML1 agonist
37 | -5.4% | . | 0.4
38 | . | 0.7 | -0.3
39 | -0.1% | -0.2 | .
40 | -2.6% | . | 0.4
41 | -1.2% | 2.7 | 3.5
42 | . | 2.5 | 0.8
43 | -21% | 12 | -0.6
44 | . | 0.5 | 0.6
45 | 0.9%&2.3% | 0.2 | -0.1&2.2
46 | 1.3% | 2.0 | 0.3
47 | -3.2% | . | -0.6
48 | -1.1% | . | 1.1

# (next part)
nr | Compound | TRPML1 inh | gsp antagonist | gsp agonist
49 | CCc1ccc(S(=O)(=O)c2c(C(=O)c3ccc(C)c(C)c3)cnc3ccccc23)cc1 | -8 | . | .
50 | CCN(CC)S(=O)(=O)c1ccc(Cl)c(C(=O)NNC(=O)c2csc(N3CCOCC3)n2)c1 | 4 | 6% | ?
51 | C/C(=N/NC(=O)COc1ccc(C(C)(C)C)cc1)c1ccc(N2CCOCC2)cc1 | 9 | -7% | -1%[15.4 µM]
52 | CC(=O)c1c(C)[nH]c(C(=O)OCc2nnc(-c3ccc([N+](=O)[O-])cc3)o2)c1C | 8 | -6% | -2%[15.4 µM]
53 | CCc1ccccc1NC(=O)CSc1nc2n[nH]c(C)c2c(=N)n1-c1cccc(OC)c1 | -10 | 6% | 5%
54 | Cc1ccccc1CC(=O)N1CCCC(CNC(=O)c2ccc(F)cc2)C1 (configuration not stated) | -11 | -1% | -21%
55 | O=C(N/N=C/c1ccccn1)c1ccc(NC(=O)c2ccc(F)cc2)cc1 | 8 | -11% | ?

nr | ClpP mod | Menin MLL FP FL | TRPML1 agonist
49 | -0.8% | . | -0.3
50 | -2.3% | . | -0.5
51 | 1.0% | . | -0.6
52 | . | . | 1.7
53 | -6.3% | 5.3 | -0.3
54 | 0.0% | . | -1.0
55 | . | 2.0 | 1.2

# Retrieved by compound from above:
nr | Compound | TRPML1 inh | gsp antagonist | gsp agonist
53 | CCc1ccccc1NC(=O)CSc1nc2n[nH]c(C)c2c(=N)n1-c1cccc(OC)c1 | -10 | 6% | 5%
50 | CCN(CC)S(=O)(=O)c1ccc(Cl)c(C(=O)NNC(=O)c2csc(N3CCOCC3)n2)c1 | 4 | 6% | ?
51 | C/C(=N/NC(=O)COc1ccc(C(C)(C)C)cc1)c1ccc(N2CCOCC2)cc1 | 9 | -7% | -1%[15.4 µM]
55 | O=C(N/N=C/c1ccccn1)c1ccc(NC(=O)c2ccc(F)cc2)cc1 | 8 | -11% | ?
54 | Cc1ccccc1CC(=O)N1CCCC(CNC(=O)c2ccc(F)cc2)C1 (configuration not stated) | -11 | -1% | -21%

nr | ClpP mod | Menin MLL FP FL | TRPML1 agonist
53 | -6.3% | 5.3 | -0.3
50 | -2.3% | . | -0.5
51 | 1.0% | . | -0.6
55 | . | 2.0 | 1.2
54 | 0.0% | . | -1.0
